Bioassay records from PubChem.
VDR inh = inhibitors of human vitamin D receptor. P11473. VDR-SRC2-3 peptide fluorescence polarization, 2 h. Potency, µM, for the others: max response, negative = inhibition, hits mostly inhibitors. 400,000 compounds, 0.93% hits. AID 504847; active = well fitted inhibition curve with a large enough effect; inconclusive = small, poorly fitted or top-dose-only effect, or another doubt; inactive = no such curve, though single readings can be large or run the other way; note: series mostly up to about 120 µM
Target sequence (P11473 whole entry, looked up): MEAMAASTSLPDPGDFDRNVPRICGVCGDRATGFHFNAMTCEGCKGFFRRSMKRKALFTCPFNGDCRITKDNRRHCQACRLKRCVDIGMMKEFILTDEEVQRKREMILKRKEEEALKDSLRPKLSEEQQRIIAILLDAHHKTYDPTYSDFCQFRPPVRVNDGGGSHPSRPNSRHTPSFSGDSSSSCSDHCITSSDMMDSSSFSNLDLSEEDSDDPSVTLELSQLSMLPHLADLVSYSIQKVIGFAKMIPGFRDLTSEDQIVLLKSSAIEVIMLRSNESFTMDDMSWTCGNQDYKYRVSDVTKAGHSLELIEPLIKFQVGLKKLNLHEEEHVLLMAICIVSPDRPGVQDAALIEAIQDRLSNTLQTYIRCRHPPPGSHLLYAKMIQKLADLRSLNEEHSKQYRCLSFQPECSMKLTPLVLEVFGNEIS
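Compounds are added to VDR with labelled SRC2-3 coactivator peptide and held 2 h at room temperature. Inhibition of the VDR–peptide interaction is then read as a change in fluorescence polarization.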
Active calls of the source: *; ? = inconclusive; & = joins results of further samples; ! = not confirmed by another sample. % is set by controls: 0 for no effect and ±100 for the full control effect; potency is the fitted concentration of half-maximal effect. A portion of the library, so the mix of outcomes need not match the whole.

Molecule | VDR inh
Cc1ccc(/C=N/NC(=O)CNC(=O)c2ccc(S(=O)(=O)N(C)C)cc2)cc1 | -12%
O=C(Cn1ncc2c([nH]c3ccccc32)c1=O)NCCc1ccc(Cl)cc1 | -12%
COc1ccc(-c2sc3ccc(N4CCOCC4)cc3c2C#Cc2ccsc2)cc1 | 11%
COc1ccc2nc(NC(=O)c3cnccn3)sc2c1 | -1%
Cn1c(N)c(C(=O)COC(=O)c2cccnc2Cl)c(=O)n(C)c1=O | -10%
CC1CC(=O)C(C2c3ccccc3CCN2C(=O)CCl)C(=O)C1 (stereo unspecified) | -9%
CC1OCC23CC[C@@]4(C)CCC(C)(C)C[C@H]4[C@]2(C)CCC12C3CC[C@@]1(C)C2C(=O)CC(=O)[C@@H]1C (stereo partly specified) | 11%
Cc1c(S(=O)(=O)Nc2ccc3c(c2)OCCO3)c(=O)n(C)c(=O)n1C | -15%
O=S1(=O)c2ccccc2N(Cc2ccccc2)c2ccccc21 | 9%
O=C(CCc1nnc(-c2ccccc2)o1)NCc1cc(F)ccc1F | 2%
Cc1ccc(NC(=O)c2cc3c(s2)CCCC3)cc1S(=O)(=O)Nc1ccccc1Cl | -27%
CC(=O)Nc1ccc(S(=O)(=O)Nc2nc3n(n2)C(c2ccccc2)CC(=O)N3)cc1 (stereo unspecified) | 13%
Cc1ccc2oc(C(=O)N(Cc3ccncc3)CC3CCCO3)c(C)c2c1 (stereo unspecified) | -2%
CCOc1ccc(C(=O)Nc2ccc(S(=O)(=O)Nc3nccc(C)n3)cc2)cc1OCC | -18%
COc1cc(OC)nc(Oc2ccccc2C(=O)Oc2ccc(C)cc2)n1 | 8%
Cc1ccc(N=Cc2c(C)[nH]n(-c3nc4ccccc4[nH]3)c2=O)cc1 | 5%
O=C(c1ccccc1)N1CCCCCC1 | -8%
CCOC(=O)C1CCCN(c2c(NCc3ccco3)c(=O)c2=O)C1 (stereo unspecified) | -9%
Cc1ccccc1-c1nc(CS(=O)(=O)CC(=O)N(C)C2CCCCC2)c(C)o1 | 0%
N#C/C(=C\c1cccc(Cl)c1)c1n[nH]c(Cn2cncn2)n1 | 5%
C#C[C@]1(O)CC[C@H]2[C@@H]3CCC4=Cc5oncc5CC4(C)[C@H]3CCC21C (stereo partly specified) | 2%
O=C(c1ccc2c(=O)n3c(nc2c1)CCC3)N1CCCSC1=Nc1ccccc1 | -11%
COc1ccc(C2NC(=O)NC(C)=C2C(C)=O)cc1 (stereo unspecified) | 21%
O=C(N1CCN(CCO)CC1)N1c2ccccc2CCc2ccccc21 | -12%
CCC(=O)NCCc1nc2cc(NC(=O)c3ccc(OC)cc3)ccc2n1C | -2%
CC(=O)c1ccc(N2CCN(S(=O)(=O)c3c(C)[nH]c(=O)[nH]c3=O)CC2)cc1 | 8%
CCN1CCN(CC(O)COCc2cc(OC)c(OC)c(OC)c2)CC1 (stereo unspecified) | -22%
CCN1CCN(C(=O)C2CCCN(S(=O)(=O)c3ccc(OC)c(OC)c3)C2)CC1 (stereo unspecified) | 0%
Fc1ccc(NC(=S)NN2CCOCC2)cc1Cl | -7%
NC(=O)Cn1cc(/C=N\NS(=O)(=O)c2ccc(F)cc2)c2ccccc21 | -5%
Cc1ccccc1C(=O)NCCNC(=O)c1cnccn1 | -8%
Cc1ccc(C)c(S(=O)(=O)N2CCN(C(=O)[C@@H](NC(=O)c3ccc(F)cc3)C(C)C)CC2)c1 | 11%
CCCCNC(=O)COC(=O)C1CCN(S(=O)(=O)c2ccc3c(c2)OCCO3)CC1 | -1%
CN(C)c1ccc(C(=O)NNC(=O)C23CC4CC(CC(C4)C2)C3)cc1 | -9%
O=C(c1ccco1)N1CCN(CC2CC3C=CC2C3)CC1 (stereo unspecified) | 9%
CCOC(=O)c1ccc(N2C(=O)CC(C)(CC)CC2=O)cc1 | ?
OC[C@H]1O[C@H](n2cnc3c(N[C@H]4CCC[C@@H]4O)ncnc32)[C@H](O)[C@@H]1O | 0%
CCCCNC(=O)C1CC(c2ccc(C(F)(F)F)cc2)=NO1 (stereo unspecified) | 1%
O=C(O)CCSc1nnc(COc2ccc([N+](=O)[O-])cc2)n1-c1ccccc1 | -15%
COc1ccc(-n2ccnc(NCc3cccs3)c2=O)cc1 | 5%
COc1ccccc1NC(=O)Cn1nc(-c2ccncc2)nc1SCC(=O)NC1CCCC1 | 4%
COc1ccc(N2CCN(C(=O)CCC(=O)c3cc(C)sc3C)CC2)cc1 | -6%
CCOc1ccc(S(=O)(=O)Nc2ccc(-c3ccc(N4CCCC4)nn3)cc2)cc1 | 17%
CCCOc1ccc(C(=O)N2CCN(c3ccc(NC(=O)CC)cc3Cl)CC2)cc1 | 0%
Cc1ccc2c(c1)N(C(=O)N1CCC(C(=O)NCc3cccs3)CC1)CC(C)O2 (stereo unspecified) | 3%
COc1ccc(-c2cnnn2-c2ccc(NC(=O)c3ccc(S(=O)(=O)N(C)C)cc3)cc2)cc1 | 8%
O=C(O)CCSCc1ccccc1F | 6%
CCOc1ccc(NC(=O)CSc2cn[nH]n2)cc1 | 1%
C=C1CC(COc2ccc3c(C)c(Cl)c(=O)oc3c2)(c2ccccc2)OC1=O (stereo unspecified) | ?
Cc1[nH]c(=O)c(C#N)c(C)c1Cc1ccc(Cl)cc1Cl | -14%

(further entries)
Molecule | VDR inh
CCO[C@H]1OC(C(=O)N2CCN(Cc3ccccc3)CC2)=C[C@@H](C)[C@@H]1CCCO | -12%
Cc1ccn2c(=O)c(C(=O)Nc3ccc(F)c(C(F)(F)F)c3)cnc2c1 | 6%
COC(=O)c1ccc(OCC(=O)c2cccc(OC)c2)cc1 | ?
COC(=O)c1c(NC(=O)COC(=O)[C@@H](NS(=O)(=O)c2ccc(C)cc2)C(C)C)sc2c1CCC2 | -3%
NC(=O)c1ccsc1NC(=O)c1ccc(S(=O)(=O)N2CCCc3ccccc32)cc1 | -1%
Cc1nc2sccc2c(=O)n1N | -9%
Cc1cc(NS(=O)(=O)c2ccc(NC(=O)COc3c(C)ccc(C)c3C)cc2)nc(C)n1 | -16%
COc1ccc(C(=O)CSc2nnc(CN3CCCCC3)n2-c2ccc(F)cc2)cc1 | -9%
CNS(=O)(=O)c1cccc(C(=O)NCC2(N3CCOCC3)CCCCC2)c1 | 1%
COc1ccc(NC(=S)NCc2ccco2)cc1 | -3%
O=C1CCC/C(=N\NC(=O)c2ccc(COc3cccc4cccnc34)cc2)C1 | 18%
CCC(C(=O)NC1CCCC1)N(C(=O)c1snc(C(N)=O)c1N)c1ccc(OC)c(OC)c1 (stereo unspecified) | 7%
COc1c(Cl)cnn(-c2ccc(C)cc2)c1=O | -18%
Cc1ccc(S(=O)(=O)Cn2nnnc2C(c2ccccn2)N2CCN(c3ccccc3)CC2)cc1 (stereo unspecified) | 9%
Cc1cccc(OCC(=O)NC(Cc2ccccc2)C(=O)O)c1 (stereo unspecified) | -2%
Cc1c(C(=O)N(Cc2nnc(-c3ccccc3Cl)o2)C2CC2)oc2ccccc12 | 10%
CCOc1cc(CNC(=O)c2cc(-c3ccc(Cl)s3)nc3ccccc23)ccc1OC | -15%
CC(=O)N1CCC(=O)N(C(C)C)c2ccccc21 | -11%
S=C(NCc1cccnc1)Nc1cc(Cl)cc(Cl)c1 | -6%
O=C(CCSCCc1ccccn1)Nc1ccccn1 | -16%
COC(=O)C1=C(C)N(C)C(C)=C(C(=O)OC)C1c1ccc(F)c(Br)c1 | 3%
COc1cc(C(=O)Nc2ccc(-n3cnnn3)c(C)c2)cc(OC)c1OC | -6%
O=C1OCc2ccc(NC(=O)c3c(F)cccc3Cl)cc21 | 8%
Cc1cccc(C)c1NC(=O)CSc1nc(C2CC2)nc2ccccc12 | -13%
CCCN(CCC)C(=O)c1ccccc1C(=O)N(CCC)CCC | 0%

Entries from the list above with a cyano group, in the order listed:
Molecule | VDR inh
N#C/C(=C\c1cccc(Cl)c1)c1n[nH]c(Cn2cncn2)n1 | 5%
Cc1[nH]c(=O)c(C#N)c(C)c1Cc1ccc(Cl)cc1Cl | -14%

More entries.
Molecule | VDR inh
COC(=O)c1cc(NC(=O)c2ccccc2F)cc(C(=O)OC)c1 | -6%
CCOC(=O)c1ccc(NC(=O)Nc2ccc3c4c(cccc24)C(=O)N3CC)cc1 | 5%
COc1ccc(S(=O)(=O)N2CCCCCC2)cc1C(=O)N(C)Cc1cccs1 | -6%
Cc1ccnc2ccc(-c3nc4ccccc4o3)cc12 | -2%&-1%
Cc1occc1C(=O)N/N=C/c1ccccn1 | 15%
O=C(Nc1ccc(F)cc1)c1oc2ccccc2c1NC(=O)C1CCCC1 | -4%
N#Cc1c(NC(=O)c2ccc([N+](=O)[O-])o2)sc2c1CCC2 | -4%
Cc1ccc(N2CCN(CC(O)COc3ccc([N+](=O)[O-])cc3)CC2)cc1 (stereo unspecified) | -7%
O=C(NNC(=O)c1ccccc1-n1cccc1)c1ccccc1 | 14%
CCCCCC(O)/C=C/C=C\CCCCCCCC(=O)O (stereo unspecified) | 2%
CC(C)(C)OC(=O)CNC(=O)c1nc[nH]c1C(=O)N1CCc2ccccc2C1 | -21%
CCOC(=O)c1cccc(NC(=O)c2ccc3nc(Cc4ccccc4)oc3c2)c1 | 3%
CCSc1ncc(/C=N/Nc2ccc(F)cc2)n1C | -5%
COc1ccc(Cl)cc1NC(=O)c1[nH]c(C)c(C(C)=O)c1C | 21%
COc1cc(NC(=O)CCCN2C(=O)CCn3nc(-c4cn(C)c5ccccc45)cc32)cc(OC)c1 | 5%
N#CCOC(=O)C1CCN(S(=O)(=O)c2ccc3c(c2)OCCO3)CC1 | -10%
CN(C)S(=O)(=O)c1cccc(C(=O)OCC(=O)N2c3ccccc3NC(=O)C2(C)C)c1 | 1%
COc1ccc(NC2=C(Cl)C(=O)N(CCc3ccccc3)C2=O)cc1 | ?
CCCC(=O)Nc1ccc2oc(-c3ccc(OC)c(Br)c3)nc2c1 | -3%
CCCCNC(=O)c1onc(CS(=O)(=O)c2ccccn2)c1C(=O)NCCCC | -2%
Cc1ccc2nc3c(cc(C(=O)NCCN4CCOCC4)c(=N)n3CCCN3CCOCC3)c(=O)n2c1 | -8%
Cc1ccc(CNC(=O)c2ccc(Cn3cc(-c4ccc(C)cc4)nc3-c3ccncc3)cc2)cc1 | -9%
COc1cc(S(=O)(=O)NC2CCCCC2)c(C)cc1C | 11%
CC(=O)c1sc(-c2cccc(Cl)c2)nc1C | -12%
O=C(O)COc1ccccc1C1C2C(=O)N(c3ccc(F)cc3)C(=O)C2ON1c1ccccc1 (stereo unspecified) | 2%

A stretch of the results above:
Molecule | VDR inh
CN(C)S(=O)(=O)c1cccc(C(=O)OCC(=O)N2c3ccccc3NC(=O)C2(C)C)c1 | 1%
COc1ccc(NC2=C(Cl)C(=O)N(CCc3ccccc3)C2=O)cc1 | ?
CCCC(=O)Nc1ccc2oc(-c3ccc(OC)c(Br)c3)nc2c1 | -3%
CCCCNC(=O)c1onc(CS(=O)(=O)c2ccccn2)c1C(=O)NCCCC | -2%
Cc1ccc2nc3c(cc(C(=O)NCCN4CCOCC4)c(=N)n3CCCN3CCOCC3)c(=O)n2c1 | -8%

Continuation.
Molecule | VDR inh
N#Cc1ccc(C(=O)Nc2cccc(NC(=O)c3ccco3)c2)c(F)c1 | -14%
CCS(=O)(=O)N1CCC(C(=O)Nc2cc(C)ccc2O)CC1 | -14%
CNC(=S)N(Cc1ccc(OC)cc1)C1CC(=O)N(c2ccc(Cl)cc2)C1=O (stereo unspecified) | 0%
COc1ccc2c(c1OC)C(=O)N1N=C(c3ccccc3)CC21 (stereo unspecified) | 8%
CCc1nc(NCC2CCCN2CC)c2nnn(Cc3ccccc3F)c2n1 (stereo unspecified) | 4%
COc1cccc([C@@H]2Oc3ccc(Br)cc3C[C@H]2OC(=O)N[C@H](C)C2CCCCC2)c1 | -5%
Oc1ccccc1Oc1ncc(Br)c(N2CCOCC2)n1 | -12%
COc1ccc(-c2sc(Nc3ccccc3)n[n+]2-c2ccc(F)cc2)cc1Br | -11%
CCOc1ccc(NC(=O)c2sc(-n3nc(C)c(CCC(C)C)c3C)nc2C)cc1 | -1%
CCN(CC)S(=O)(=O)c1cccc(C(=O)NCc2ccccc2)c1 | 1%
NCCCNc1nc(N)c([N+](=O)[O-])c(NC2CCCCC2)n1 | -12%
O=C(CSCCO)Nc1cccc2ccccc12 | 19%
CC(C)OC(=O)CC(=O)CSc1nc2c(cc1C#N)CCCC2 | -12%
CCc1nnc(NC(=O)CSc2nnc(-c3ccccc3OC)n2-c2ccccc2)s1 | -10%
Cc1cccc(OCC(=O)NN2C(=O)C3C4C=CC(O4)C3C2=O)c1 (stereo unspecified) | -2%
COc1ccc(NC(=O)Cn2cc(C(C)=O)c3ccccc32)cc1 | -3%
COc1cc(C)c(/C=C/C(C)=C/C=C/C(C)=C/C(=O)O)c(C)c1C | 45µM*!
CC(=O)N1CCc2cc(S(=O)(=O)C(C)CC(=O)NCc3ccc(C)o3)ccc21 (stereo unspecified) | -10%
O=C(Cc1ccsc1)NCc1ccccc1F | 15%
O=C(NCc1ccco1)c1cc(C(=O)C2CC2)c[nH]1 | -7%
COc1ccc(C(=O)NCCNC(=O)c2cc(OCC(F)(F)F)ccc2OCC(F)(F)F)cc1 | 5%
COc1ccccc1CC(=O)N1CCN(c2cccc(Cl)c2)CC1 | -15%
Cc1cc(C(=O)NCc2ccccc2)c2c(C)nn(-c3cccc(Cl)c3C)c2n1 | 8%
